Ecoli rRNA inh – inhibitors of bacterial rRNA selective over humanized ribosomes; E. coli WT GFP vs humanized-ribosome RFP mutants, fluorescence, 24 h; hits give low values; DMSO median 0, no signal -100; hit rate 1.6% among 350,000; AID 720706; GFP signal change (wild-type ribosome), % (test concentration not listed);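 active = significant combined selectivity score with lowered wild-type GFP, culture density cut under 30%, mutant RFP and density less affected; inactive = any of these conditions unmet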; also: one replicate is shown; some compounds called inactive have numbers as strong as hits
FGF22 binding – binders of recombinant human FGF22 by thermal shift | SYPRO orange fluorescence; percent of sucrose octasulfate shift, DMSO zero | calls only at 9.99 µM | hit rate 1.5% among 340,000 | AID 651658;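 active = melting point raised past a set limit in the mean and every replicate; three in four hits are not shown here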
Target sequence (Q9HCT0 whole entry, looked up): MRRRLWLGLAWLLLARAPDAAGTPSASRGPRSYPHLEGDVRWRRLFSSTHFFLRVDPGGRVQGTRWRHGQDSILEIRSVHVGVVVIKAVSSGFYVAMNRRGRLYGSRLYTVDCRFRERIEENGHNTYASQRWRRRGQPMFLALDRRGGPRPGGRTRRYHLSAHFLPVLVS
Ecoli rRNA inh OD600 – also measured in Ecoli rRNA inh; calls as there; OD600 change, %; measured here: OD600 growth;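 optical density of the mix in the first replicate; 0 = DMSO median and -100 = no signal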
Ecoli rRNA inh RFP – further read-out of Ecoli rRNA inh, marked with its call; RFP signal change, %; measured here: RFP humanized mutant strains;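 first replicate; 0 = DMSO median and -100 = no signal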
* hit, by the source's call; i = inactive; + = active, no number. Only part of the results is shown. The share of hits here may be higher or lower than overall.

SMILES | Ecoli rRNA inh | Ecoli rRNA inh OD600 | Ecoli rRNA inh RFP | FGF22 binding
CCC(=O)N(C)C[C@H]1Oc2cc(C#C[C@@H](C)O)ccc2S(=O)(=O)N([C@H](C)CO)C[C@H]1C | 3 | 4 | 1.9 | i
CC(C)NC(=O)N[C@H]1CC[C@@H](CCNS(=O)(=O)Cc2ccccc2)O[C@@H]1CO | 0 | -3 | 2.3 | i
CCCc1c(-c2cccc(Br)c2)ncn1CCc1ccccc1OC | -22 | -52 | 18 | i
CCC(=O)Nc1ccc2c(c1)OC[C@@H](C)N(C(=O)COC)C[C@@H](C)[C@@H](OC)CN(C)C2=O | 1 | -1 | 1.6 | i
C[C@@H]1CN([C@H](C)CO)C(=O)c2cccc(NS(=O)(=O)c3ccccc3)c2O[C@H]1CN(C)Cc1ccc(Cl)c(Cl)c1 | -3 | 0 | -2.2 | i
C[C@@H]1CCCCO[C@@H](CN(C)S(=O)(=O)c2cn(C)cn2)[C@H](C)CN([C@@H](C)CO)C(=O)c2cc(NS(=O)(=O)c3ccc(F)cc3)ccc2O1 | -1 | -5 | 1.1 | i
C[C@H](CO)N1C[C@H](C)[C@H](CN(C)C(=O)c2ccncc2)OCCCC[C@H](C)Oc2ccc(NC(=O)CCCCCC(=O)Nc3ccccc3N)cc2C1=O | 5 | 5 | -1.9 | i
C[C@H]1CN([C@@H](C)CO)C(=O)c2cc(NS(=O)(=O)c3ccc(F)cc3)ccc2O[C@H]1CN(C)Cc1ccccc1 | -1 | 9 | -0.4 | i
C[C@H](CO)N1C[C@H](C)[C@@H](CN(C)Cc2ccc(Cl)c(Cl)c2)Oc2ccc(NC(=O)Cc3ccccc3)cc2CC1=O | 0 | 3 | 3.0 | i
CO[C@H]1CN(C)C(=O)c2ccc(NC(=O)NC(C)C)cc2OC[C@@H](C)N(C(=O)CN(C)C)C[C@H]1C | 4 | 6 | -1.5 | i
CCC(=O)N1[C@@H]2Cn3c(ccc(-c4ccccc4F)c3=O)[C@H]1[C@@H](C(=O)NC1CCC1)[C@@H]2CO | 0 | 1 | 1.0 | i
CO[C@H]1CN(C)C(=O)c2cc(NC(=O)C3CCC3)ccc2OC[C@@H](C)N(Cc2cccnc2)C[C@@H]1C | 2 | -2 | -2.0 | i
Cc1noc(C)c1NC(=O)N(C)C[C@@H]1Oc2ccc(N(C)C)cc2C(=O)N([C@H](C)CO)C[C@@H]1C | 1 | 13 | -1.2 | i
CCCN1C[C@@H](C)[C@H](OC)CN(C)C(=O)c2cc(NC(=O)Nc3c(C)noc3C)ccc2OC[C@H]1C | 1 | 0 | 2.5 | i
CC(C)C(=O)Nc1ccc2c(c1)C(=O)N(C)[C@H]1CC[C@@H](CC(=O)Nc3ccccc3)O[C@@H]1CO2 | 1 | 4 | -1.4 | i
Cc1ccc(S(=O)(=O)Nc2ccc3c(c2)CC(=O)N([C@H](C)CO)C[C@@H](C)[C@@H](CN(C)C(=O)Nc2ccccc2)O3)cc1 | -1 | -4 | 1.5 | i
COC(=O)C1=C(C)N(Cc2ccc(C(F)(F)F)cc2)C(=NCc2ccccc2)NC1c1ccccc1C(F)(F)F (stereo not drawn) | -45 | -75 | -10 | i
CCN1[C@@H]2c3cccc(=O)n3C[C@@H]2[C@@H](CO)[C@@H]1C(=O)NC1Cc2ccccc2C1 | 0 | 8 | -2.0 | i
COC(=O)C[C@H]1CC[C@@H]2[C@H](COC[C@H](O)CN2CCC(F)(F)F)O1 | 9 | 5 | -2.5 | i
C[C@@H]1CN([C@H](C)CO)C(=O)c2cc(C3=CCCC3)cnc2O[C@@H]1CN(C)C(=O)c1ccncc1 | 2 | 4 | -2.6 | i

A draw from above in order of length of the SMILES, descending.
SMILES | Ecoli rRNA inh | Ecoli rRNA inh OD600 | Ecoli rRNA inh RFP | FGF22 binding
C[C@H](CO)N1C[C@H](C)[C@H](CN(C)C(=O)c2ccncc2)OCCCC[C@H](C)Oc2ccc(NC(=O)CCCCCC(=O)Nc3ccccc3N)cc2C1=O | 5 | 5 | -1.9 | i
Cc1ccc(S(=O)(=O)Nc2ccc3c(c2)CC(=O)N([C@H](C)CO)C[C@@H](C)[C@@H](CN(C)C(=O)Nc2ccccc2)O3)cc1 | -1 | -4 | 1.5 | i
C[C@@H]1CN([C@H](C)CO)C(=O)c2cccc(NS(=O)(=O)c3ccccc3)c2O[C@H]1CN(C)Cc1ccc(Cl)c(Cl)c1 | -3 | 0 | -2.2 | i
C[C@H]1CN([C@@H](C)CO)C(=O)c2cc(NS(=O)(=O)c3ccc(F)cc3)ccc2O[C@H]1CN(C)Cc1ccccc1 | -1 | 9 | -0.4 | i
CC(C)C(=O)Nc1ccc2c(c1)C(=O)N(C)[C@H]1CC[C@@H](CC(=O)Nc3ccccc3)O[C@@H]1CO2 | 1 | 4 | -1.4 | i
C[C@@H]1CN([C@H](C)CO)C(=O)c2cc(C3=CCCC3)cnc2O[C@@H]1CN(C)C(=O)c1ccncc1 | 2 | 4 | -2.6 | i
CCC(=O)Nc1ccc2c(c1)OC[C@@H](C)N(C(=O)COC)C[C@@H](C)[C@@H](OC)CN(C)C2=O | 1 | -1 | 1.6 | i
COC(=O)C[C@H]1CC[C@@H]2[C@H](COC[C@H](O)CN2CCC(F)(F)F)O1 | 9 | 5 | -2.5 | i

Next part
SMILES | Ecoli rRNA inh | Ecoli rRNA inh OD600 | Ecoli rRNA inh RFP | FGF22 binding
COc1ccc(NC(=O)Nc2ccc3c(c2)C(=O)N([C@H](C)CO)C[C@H](C)[C@@H](CN(C)S(=O)(=O)c2ccc(C)cc2)O3)cc1 | -3 | 2 | 1.3 | i
C[C@@H]1CN([C@H](C)CO)C(=O)Cc2cc(NC(=O)CCCN(C)C)ccc2O[C@@H]1CN(C)S(=O)(=O)c1ccccc1 | 6 | 16 | -0.7 | i
COCC(=O)Nc1ccc2c(c1)C(=O)N(C)C[C@H](OC)[C@H](C)CN(Cc1cc(F)ccc1F)[C@@H](C)CO2 | -6 | -4 | 4.1 | i
O=C(Nc1ccccc1F)N1CCCCN2[C@H](CO)[C@@H](c3ccc(/C=C/c4ccccc4)cc3)[C@H]2C1 | -56 | -79 | -11 | i
C[C@H]1CN([C@@H](C)CO)C(=O)c2c(c3ccccc3n2C)-c2ccccc2CO[C@H]1CN(C)C | 0 | 4 | -1.7 | i
COCC(=O)N1CCN(C(=O)C(=O)c2cccc(C(F)(F)F)c2)CC1 | -1 | 3 | 4.6 | i
CC(C)NC(=O)N(C)C[C@@H]1Oc2ccc(NC(=O)c3ccncc3)cc2C(=O)N([C@H](C)CO)C[C@H]1C | -1 | 5 | -2.5 | i
O=C(c1ccncc1)N1C[C@@H]2[C@H](c3ccccc31)[C@H](CO)N2C(=O)c1ccccn1 | 4 | -3 | -3.5 | i
COC(=O)[C@]12C[C@H](CC(=O)NCc3ccc(OC)c(OC)c3)C(=O)N(CCC3=CCCCC3)C1=C[C@H](COCc1ccccc1)O[C@@H]2C | -1 | -6 | 1.1 | i
O=C(NCC[C@H]1CC[C@H](NS(=O)(=O)c2cccc(Cl)c2)[C@@H](CO)O1)c1cnccn1 | -5 | -8 | -4.6 | i
O=C(NCC[C@@H]1CC[C@@H](NC(=O)C2CCC2)[C@@H](CO)O1)c1ccc(F)cc1 | 1 | -7 | -0.5 | i
CC(C)NC(=O)Nc1cccc2c1O[C@@H](CN(C)Cc1ccc(C(F)(F)F)cc1)[C@@H](C)CN([C@@H](C)CO)C2=O | 1 | 7 | -0.8 | i
CCCC(=O)Nc1ccc2c(c1)C(=O)N(C)[C@H]1CC[C@H](CC(=O)Nc3ccccc3OC)O[C@@H]1CO2 | 5 | -6 | 3.7 | i
CO[C@H](CN(C)C(=O)c1cc(Cl)cc(Cl)c1)[C@@H](C)CN(C(=O)Nc1ccc(F)cc1)[C@H](C)CO | -7 | -10 | 0.0 | i
Cc1noc(C)c1NC(=O)Nc1ccc2c(c1)CC(=O)N([C@H](C)CO)C[C@@H](C)[C@@H](CN(C)Cc1ccc(-c3ccccc3)cc1)O2 | -2 | -37 | 8.7 | i
C[C@H](CO)N1C[C@H](C)[C@H](CN(C)Cc2ccc(C(F)(F)F)cc2)Oc2c(NC(=O)c3nc4ccccc4s3)cccc2C1=O | -1 | 9 | -1.3 | i
Cc1onc(-c2ccccc2)c1C(=O)N1CCN(C(=O)C(=O)c2cccc(C(F)(F)F)c2)CC1 | -5 | -22 | 1.5 | i
C[C@@H]1CN([C@H](C)CO)C(=O)c2cc(NS(=O)(=O)c3ccc(F)cc3)ccc2O[C@@H]1CN(C)S(=O)(=O)c1cn(C)cn1 | 3 | 3 | -4.1 | i
C[C@H](CO)N1C[C@H](C)[C@@H](CN(C)S(=O)(=O)c2ccccc2F)Oc2cc(C#Cc3ccccc3)ccc2S1(=O)=O | 7 | 5 | -4.7 | i
C[C@@H]1CN([C@@H](C)CO)C(=O)c2cc(NS(=O)(=O)c3ccc(Cl)cc3)ccc2O[C@@H](C)CCCCO[C@@H]1CN(C)Cc1ccncc1 | -1 | -18 | -3.4 | i
O=C(C[C@@H]1C[C@@H]2c3cc(NC(=O)C4CCOCC4)ccc3O[C@@H]2[C@@H](CO)O1)NC1CCCC1 | 1 | 6 | -3.3 | i
COc1ccc2c3c(n(C)c2c1)[C@@H](CO)N(Cc1ccncc1)CC31CCN(C(=O)C2CCC2)CC1 | 5 | 1 | 2.4 | i
COc1ccccc1-c1cnc2c(c1)C(=O)N([C@@H](C)CO)C[C@H](C)[C@H](CN(C)C(=O)c1ccccc1)O2 | 1 | 1 | -0.8 | i
C/C=C/c1ccc([C@H]2[C@@H](CO)N(S(C)(=O)=O)[C@@H]2CN(CC)C(=O)CC)cc1 | 0 | 7 | -4.0 | i
O=C(C[C@H]1C=C[C@H](NC(=O)Nc2cccc(F)c2)[C@@H](CO)O1)NCC1CCCCC1 | 4 | 5 | -1.2 | i
C[C@H]1CN([C@@H](C)CO)C(=O)c2cc(C#Cc3cccnc3)cnc2O[C@@H]1CN(C)S(=O)(=O)c1ccccc1F | -7 | -5 | 1.2 | i
Cc1ccc(S(=O)(=O)Nc2ccc3c(c2)C(=O)N([C@@H](C)CO)C[C@H](C)[C@@H](CN(C)CC2CCCCC2)O3)cc1 | -1 | 3 | -0.3 | +
CC(C)CC#Cc1ccc2c(c1)O[C@@H](CN(C)C(=O)Nc1ccccc1)[C@H](C)CN([C@@H](C)CO)S2(=O)=O | -4 | -6 | -2.4 | i
C[C@H](CO)N1C[C@H](C)[C@H](CN(C)Cc2ccc(C(=O)Nc3ccccc3N)cc2)Oc2ccc(NS(C)(=O)=O)cc2C1=O | 6 | 6 | 0.9 | i
C[C@@H]1CCCCO[C@H](CN(C)Cc2ccc(C(F)(F)F)cc2)[C@@H](C)CN([C@@H](C)CO)C(=O)c2cc(NC(=O)Nc3cccc4ccccc34)ccc2O1 | 8 | 17 | -0.6 | i
COc1ccc(CN(C)C[C@H]2Oc3c(NC(=O)c4ccncc4)cccc3C(=O)N([C@@H](C)CO)C[C@@H]2C)cc1 | -4 | 2 | -1.9 | i
CC(=O)N(C)C[C@@H]1Oc2cc(-c3ccc(F)cc3)ccc2S(=O)(=O)N([C@H](C)CO)C[C@@H]1C | -6 | 3 | 2.0 | i
COCC#Cc1ccc2c(c1)O[C@@H](CN(C)C(=O)Nc1ccccc1F)[C@@H](C)CN([C@@H](C)CO)S2(=O)=O | -3 | 4 | -2.0 | i
COc1ccc(S(=O)(=O)Nc2ccc3c(c2)C(=O)N([C@@H](C)CO)C[C@@H](C)[C@@H](CN(C)S(=O)(=O)c2ccc(F)cc2)OCCCC[C@@H](C)O3)cc1 | 0 | 10 | 0.8 | i
C[C@@H]1CN([C@@H](C)CO)C(=O)Cc2cc(NC(=O)Nc3ccccc3)ccc2O[C@H]1CN(C)C(=O)Nc1ccccc1 | 0 | 5 | -0.8 | i
C[C@@H]1CN([C@@H](C)CO)C(=O)c2cc(NC(=O)Cc3cn(C)c4ccccc34)ccc2O[C@H]1CN(C)S(=O)(=O)c1cn(C)cn1 | 4 | 8 | 2.3 | i
Cc1ccc(S(=O)(=O)N(C)C[C@@H]2Oc3ccc(NS(=O)(=O)c4cccs4)cc3C(=O)N([C@@H](C)CO)C[C@@H]2C)cc1 | -1 | -9 | 0.9 | i
CO[C@H]1CN(C)C(=O)c2cc(NC(=O)C3CCCC3)ccc2OC[C@H](C)N(S(C)(=O)=O)C[C@H]1C | -1 | 4 | -1.7 | i
C[C@H]1CCCCO[C@H](CN(C)C(=O)Nc2ccc(F)cc2)[C@@H](C)CN([C@@H](C)CO)C(=O)c2cc(NC(=O)Nc3cccc4ccccc34)ccc2O1 | 3 | 11 | 0.7 | i
C[C@H]1CCCCO[C@H](CN(C)C(=O)c2ccccc2)[C@@H](C)CN([C@@H](C)CO)C(=O)c2cc(NS(C)(=O)=O)ccc2O1 | -1 | 7 | 0.2 | i
C[C@H](CO)N1C[C@H](C)[C@H](CN(C)S(=O)(=O)c2cccs2)Oc2ccc(NS(=O)(=O)c3ccc(Cl)cc3)cc2CC1=O | 2 | 2 | 4.5 | i
COc1ccc(S(=O)(=O)Nc2ccc3c(c2)C(=O)N([C@@H](C)CO)C[C@@H](C)[C@@H](CN(C)C(=O)CCC(F)(F)F)OCCCC[C@H](C)O3)cc1 | 0 | -10 | -2.9 | i
O=C(c1cnccn1)N1CC[C@@H]2[C@H](CO)Nc3ccc(C#Cc4cccnc4)cc3[C@@H]21 | -2 | 0 | -4.7 | i
O=C(C[C@@H]1CC[C@H](NC(=O)CC2CC2)[C@@H](CO)O1)NCc1ccc(-c2ccccc2)cc1 | 1 | -1 | -0.5 | i
C[C@@H]1CN([C@H](C)CO)C(=O)c2cc(-c3cncnc3)cnc2O[C@H]1CN(C)Cc1ccncc1 | 6 | 12 | -1.8 | i
